Bioassay records (PubChem)
Bfl-1 A1 inh: caspase 3/7 activation in MEF A1-2A-BIM cells, primary screen, A1 inhibitor project, cell-based, luminescence, HTS; Caspase-Glo 3/7 luminescence, 3 h; percent of clofoctol response, vehicle zero; caspase activation, % (test concentration not listed); 330,000 tested, 0.066% active;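 active = over half of replicate activation scores above 10%, or exactly half above 10 with the replicate mean above 10; inconclusive = replicate mean below 10 yet half the replicates above 10; inactive = over half of replicates below 10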;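 also: wells of about 30 µL received 50 nL stock; many hits fall short of the cut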
UCH37 DUB inh: inhibitors of human UCH37 deubiquitinase, primary screen, biochemical, Ub-AMC cleavage, fluorescence; Ubiquitin carboxyl-terminal hydrolase isozyme L5 (Homo sapiens), Q9Y5K5; purified proteasome/UCH37; inhibition, % (test concentration not listed); 330,000 tested, 0.33% active;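 active = mean of two replicates above 20%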;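 also: 0% = compound-free wells with enzyme and 100% = wells lacking proteasome; stock transfer was 100 nL into about 20 µL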
Target sequence (Q9Y5K5 whole entry, looked up): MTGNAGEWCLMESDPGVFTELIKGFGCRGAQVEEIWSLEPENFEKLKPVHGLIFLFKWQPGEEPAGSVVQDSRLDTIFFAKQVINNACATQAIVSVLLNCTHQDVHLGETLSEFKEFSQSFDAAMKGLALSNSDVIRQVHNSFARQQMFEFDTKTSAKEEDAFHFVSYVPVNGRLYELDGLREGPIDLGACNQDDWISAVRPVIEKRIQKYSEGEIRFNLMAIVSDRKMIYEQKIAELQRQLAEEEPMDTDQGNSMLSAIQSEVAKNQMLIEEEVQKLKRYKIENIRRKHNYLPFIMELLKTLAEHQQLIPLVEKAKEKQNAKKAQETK
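System: Proteasome-associated human UCH37 deubiquitinase; Input: 0.15 nM proteasome in added enzyme buffer; Also added: Ub-AMC substrate from 1 µM stock; Incubation: 30 min compound-proteasome preincubation then 25 min substrate reaction, room temperature; Detection: fluorescence, ex 355 nm, em 460 nm; Read-out: % inhibition of Ub-AMC cleavage fluorescence; Benchmarks: no-proteasome and no-compound wells.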
Calb FLC: C. albicans growth inhibition with fluconazole, primary screen, CaCi-2 strain, Alamar Blue fluorescence | 300,000 tested, 0.57% active | growth inhibition, % (concentration not given with the values) | AID 1979, 2009 | C. albicans CaCi-2 (fluconazole-resistant clinical isolate) + fluconazole, 48 h;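 active = most replicates above 75%; inconclusive = exactly half above 75%; inactive = most below 75%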;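 also: all wells also contain fluconazole at 8 µg/ml as a sub-toxic cotreatment; 0% = median of DMSO wells and 100% = median of geldanamycin control wells; wells of about 8 µL received 7.5 nL stock; the first replicate is given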
LANA-H2A inh: blockers of LANA interaction with H2A/H2B – biochemical, FP readout, HTS, primary screen. Protein LANA1 (Human herpesvirus 8 type P (isolate GK18)), Q9QR71. cell-free LANA-H2A/H2B peptide, fluorescence polarization. AID 2629, 2010. inhibition, % (test concentration not listed). 320,000 tested, 0.6% active; in the data active = inhibition mostly above about 10%, no sharp cut-off; inactive = mostly below about 6.7%;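 also: stock transfer was 7.5 nL into about 10 µL; 0% = median of vehicle wells and 100% = median of positive control wells; one replicate is shown; the record names a cut of 25% in any replicate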
Beta apoptosis: inhibitors of cytokine-induced beta cell apoptosis, primary screen, luminescence | INS-1E cytokine-induced death, ATP luminescence, 48 h; percent of positive-control rescue, neutral wells zero | protection from apoptosis, % (no concentration beside the values) | 300,000 tested, 0.8% active | AID 435005, 2010;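 active = all replicates at 75% or more, or half of them and the mean; inconclusive = half reach 75% but not the mean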;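 also: 0% = cytokine-treated negative control wells and 100% = positive control rescue; higher means more ATP so stronger rescue from cytokine killing; wells of about 40 µL received 100 nL stock; the first replicate is given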
T cruzi repl: inhibitors of intracellular T. cruzi growth, primary screen, luminescence, NIH3T3 host cells; T. cruzi beta-gal in NIH3T3, 90 h; 300,000 tested, 1.4% active; inhibition, % (no concentration beside the values);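 active = mean inhibition across valid replicates above about 55%, limit read from the data; inconclusive = mean below that limit but half or more replicates reach it; inactive = mean below it, under half of replicates reach it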;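 also: signal also drops with host cell toxicity which is not excluded here; 0% = plate median of DMSO wells and 100% = zero luminescence signal; higher percent means less beta-gal luminescence so fewer parasites; stock transfer was 50 nL into about 50 µL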
RanGTP-Imp inh: inhibitors of RanGTP-importin-beta interaction, primary screen, biochemical, FRET, CFP-Ran, YFP-importin-beta, homogeneous; Ran GTPase (GTP-bound) - importin-beta complex; AID 2216, 2009; cell-free CFP-Ran/YFP-importin-beta FRET ratio; inhibition, % (test concentration not listed); 300,000 tested, 1.1% active;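 active = most replicates above 15%; inconclusive = exactly half above 15%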;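 also: 0% = DMSO wells and 100% = Ran loaded with GDP instead of GTP; wells of about 40 µL received 100 nL stock; the first replicate is given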
Beta2AR agonist: beta2AR agonists driving receptor internalization, primary screen, cell-based, FAP fluorogen, flow cytometry | Am2.2-beta2AR cells; reference of the scale not given here | AID 504454, 2011 | response, % (concentration not given with the values) | Beta-2 adrenergic receptor (Homo sapiens), P07550 | 340,000 tested, 0.43% active;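 active = response above a set limit, near 3 SD of response in nonfluorescent compounds, cut at about 42% in these data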;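 also: stock transfer was 100 nL into about 11 µL; a reference agonist was the positive control; negative values mostly stem from fluorescent compounds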
Target sequence (P07550 whole entry, looked up): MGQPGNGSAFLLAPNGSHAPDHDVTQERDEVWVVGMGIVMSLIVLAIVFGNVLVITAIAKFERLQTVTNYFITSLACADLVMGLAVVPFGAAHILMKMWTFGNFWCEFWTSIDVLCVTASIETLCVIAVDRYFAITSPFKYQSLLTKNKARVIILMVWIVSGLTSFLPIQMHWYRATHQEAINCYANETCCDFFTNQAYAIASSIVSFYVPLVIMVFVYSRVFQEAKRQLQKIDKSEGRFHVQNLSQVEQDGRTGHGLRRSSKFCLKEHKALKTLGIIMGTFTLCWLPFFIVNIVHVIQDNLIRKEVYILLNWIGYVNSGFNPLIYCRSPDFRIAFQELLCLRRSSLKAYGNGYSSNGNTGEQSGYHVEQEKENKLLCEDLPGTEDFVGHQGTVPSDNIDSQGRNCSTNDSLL
* = called active by the depositor; ? = inconclusive; . = no result given; ! = not active in a repeat.

Results follow in this order: Bfl-1 A1 inh, UCH37 DUB inh, Calb FLC, LANA-H2A inh, Beta apoptosis, T cruzi repl, RanGTP-Imp inh, Beta2AR agonist
CCCCn1c(-c2ccccc2)nc2c(=O)n(C)c(=O)[nH]c21
    0.4, -22, -1, -4.3, 3, 7, 5.6, 2
CCN(CC)CC(=O)Nc1ccc(C)cc1C(=O)c1ccccc1
    0.7, 4.2, -20, -5.5, -4, 11, -3.8, 2
CC12CCC(C(=O)NCc3ccc4c(c3)OCO4)(C(=O)C1=O)C2(C)C (stereo not given)
    0.5, 2.6, -6, 0.8, -8, 10, 4.4, .
COc1ccc(/C=C2\CC/C(=C\c3ccc(OC)c(OC)c3)C2=O)cc1OC
    0.5, 0.8, -13, -1.7, 1, 4, -5.2, 6
CSc1ccc(/C=C/C(=O)N2CCCN(C)CC2)cc1
    -0.1, -167, 9, 6.0, -5, 33, 1.9, -6
CN=c1sc2ccccc2n1CC(O)COCc1ccco1 (stereo not given)
    0.0, 1.3, -6, 0.6, -2, -3, -7.0, -10
CCOc1ccccc1N1CCN(CC(=O)NC(C)c2ccccc2)CC1 (stereo not given)
    0.6, 1.7, -10, -12, -2, -1, 8.1, 1
O=CN/C=C/c1cc(O)ccc1O
    -0.4, -19, ., -1.5, -7, ., ., 40
COC(=O)c1[nH]c2cccc(OC)c2c1NC(=O)CCN1CCC(C(N)=O)CC1
    0.1, -9.6, 30, -5.6, -1, 0, 1.4, .
O=C(Nc1c(F)cc(F)cc1Br)c1ccco1
    0.3, 1.3, 8, -1.5, -4, -13, -1.8, 0
O=C(/C=N\O)NCCCNCc1ccccc1
    -0.7, ., -2, 16, -4, -8, 2.7, -4
COc1cccc(CN(C)C(=O)c2cc(S(=O)(=O)NC3CCCCC3)ccc2C)c1OC
    0.6, 0.3, ., 3.1, -5, ., ., 0
CCNC(=O)COC(=O)Cc1ccc(Cl)cc1Cl
    0.5, 1.1, 23, 0.8, -5, -13, -4.2, -3
COc1ccc(CN2CCCC(CNC(=O)c3ccc(F)cc3)C2)c(C)c1C (stereo not given)
    0.3, 4.7, -22, -1.9, -5, 71*, 1.3, -4
Cc1cc(C)c(C2C(C#N)=C(N)Oc3n[nH]c(C)c32)cc1CN1CCOCC1 (stereo not given)
    0.3, 3.5, -14, 2.0, -7, -12, 1.0, 7
COc1ccc(NS(=O)(=O)c2ccc(C)c(C(=O)N3CCC3)c2)cc1
    0.6, 3.4, -7, -0.3, 4, -2, -2.2, -3
CC(=O)[C@@]1(O)CC[C@H]2[C@@H]3C[C@H](C)C4=CC(=O)C=C[C@]4(C)[C@@]3(F)[C@@H](O)C[C@@]21C
    -1.1, 2.0, ., 18*!, -15, -4, -0.6, 2
COc1cc(C(=O)NNC(=O)Nc2ccc([N+](=O)[O-])cc2)cc(OC)c1OC
    0.9, 3.2, -9, -7.1, 1, -15, -0.7, 12
Cn1c2ccccc2c2cc(C(=O)OCC(=O)N3CC(=O)Nc4ccccc43)sc21
    -0.1, -12, 2, -0.1, -1, -3, -11, 6
O=c1cc(CN2CCc3ccccc3C2)nc2sccn12
    1.0, -1.0, -20, -8.1, -8, 16, 7.8, -4

Results follow in this order: Bfl-1 A1 inh, UCH37 DUB inh, Calb FLC, LANA-H2A inh, Beta apoptosis, T cruzi repl, RanGTP-Imp inh, Beta2AR agonist
CCN(CC)S(=O)(=O)c1cc([N+](=O)[O-])ccc1NNC(=O)Nc1ccccc1OC
    0.4, 1.0, 4, 2.2, 9, 16, -1.2, 1
NS(=O)(=O)c1cc(C(=O)OCC(=O)N2CCc3ccccc3C2)ccc1Cl
    0.3, 0.7, ., 7.7, -3, ., ., 6
COc1ccc(N(CC(=O)Nc2ccc3c(c2)OCCO3)S(=O)(=O)c2cccnc2)cc1
    2.0, 3.4, ., 3.5, 3, ., ., 5
O=C(COC(=O)c1ccc(OC(F)(F)F)cc1)Nc1ncccn1
    -0.5, -7.2, ., 4.6, -7, ., ., 0
O=C(CCC1CCCC1)c1c(O)c2ccccc2oc1=O
    ?, 2.2, -4, 4.8, 7, -12, -0.7, 3
COc1ccc(CN2CCCCC2c2cccnc2)c(OC)c1C (stereo not given)
    0.3, 2.4, -7, 5.9, -3, 24, 6.2, 7
COCC(C)n1c(C)cc(C(=O)COc2ccc(C)nc2[N+](=O)[O-])c1C (stereo not given)
    0.0, 0.9, -2, -3.2, -2, 12, 1.7, 3
O=C(Nc1ccc2oc(-c3ccccc3F)nc2c1)c1ncn[nH]1
    -11, ., -3, -3.0, 4, 13, -0.3, 12
COc1ccc(-n2c(C)nnc2SCC(=O)N2C(C)CCCC2C)cc1 (stereo not given)
    0.9, 6.3, -22, -0.5, 6, 13, 4.9, 6
COc1ccc(/C=N/NC(=O)c2ccccc2O)cc1COc1ccccn1
    0.1, ., 3, 2.1, 17, -8, 0.0, 8
COc1ccc(-c2nc3ccccc3o2)cc1OC
    -7.0, ., -16, 3.2, 3, -27, 4.2, -16
COc1ccc(-n2nc(C(=O)c3cccs3)cc(-c3nc4ccccc4[nH]3)c2=N)cc1
    1.4, 4.9, -25, 1.6, -19, 73*, 4.8, 34
CN(C)c1ccccc1C(=O)N1CCCC(C(=O)c2ccc3ccccc3c2)C1 (stereo not given)
    -0.7, -3.0, -10, -4.4, -8, 24, -1.8, 3
O=C1COc2ccc(C(=O)COC(=O)c3cc(S(=O)(=O)NCc4ccccc4)ccc3O)cc2N1
    0.4, 2.5, -1, -0.9, 5, 7, 5.6, -7
CCCC(=O)Nc1ccccc1NC(C)=O
    0.3, 0.8, 37, 18*, 0, -9, -2.9, 1
COc1ccc(NC(=O)CSc2nnc(-c3cccs3)n2Cc2ccco2)cc1OC
    0.1, 0.1, 16, 2.0, 2, 3, -4.8, -6
O=C(c1cncs1)N1CCCC(CNS(=O)(=O)c2cccs2)C1 (stereo not given)
    ?, 2.1, -5, 0.4, -6, -4, -1.0, -2
O=C(COC(=O)c1ccccc1)NCc1cccs1
    0.6, 5.2, -5, 6.0, 4, -4, -1.9, -6
NNc1ccc2c(C(F)(F)F)cc(C(F)(F)F)nc2n1
    0.2, 4.0, 11, 2.8, -6, 0, 5.4, 0
CCOc1ccc(C2=Nn3c(CC)nnc3SC2)cc1
    1.2, 5.1, ., 3.6, 5, ., ., -18

structure | Bfl-1 A1 inh | UCH37 DUB inh | Calb FLC | LANA-H2A inh | Beta apoptosis | T cruzi repl | RanGTP-Imp inh | Beta2AR agonist
CC(C)c1c(C(=O)N/N=C2\CCc3ccccc32)nnn1-c1nonc1N | 0.1 | . | -9 | 4.1 | 0 | -1 | -1.3 | -7
COc1ccccc1NC(=O)N1CCCC1C(=O)NCc1cccs1 (stereo not given) | 0.0 | -1.2 | -4 | -3.3 | -1 | -9 | 0.5 | -1
COCCCNC(=O)/C=C/c1cccc(Cl)c1 | 0.3 | 4.8 | 32 | 0.9 | -8 | -5 | -0.3 | -2
COc1ccc(OC)c(NC(=O)c2cc(-c3cc(C)c(C)cc3O)n[nH]2)c1 | -3.4 | -41 | -19 | 1.7 | 10 | -7 | 1.0 | 5
CSCCC(NC(=O)c1ccccc1)C(=O)OCC(=O)c1ccc[nH]1 (stereo not given) | -0.2 | 2.4 | -7 | 8.0 | 2 | -8 | 0.7 | -3
CCOc1ccc(NC(=O)CSc2nnc(C3CC3)n2C)cc1 | 2.2 | 4.4 | -3 | -1.6 | 1 | 11 | 4.0 | -5
Cc1cccc(N2C(=O)CC(N3CCN(c4ccccn4)CC3)C2=O)c1 (stereo not given) | 1.0 | 2.1 | 17 | -0.5 | 2 | -19 | -3.5 | 4
COc1ccc2[nH]c(C(=O)N(C)Cc3ccccc3)c(C)c2c1 | -0.5 | 1.7 | -3 | 0.9 | -4 | -8 | 4.2 | -4
Cc1[nH]c(-c2ccco2)nc1C(=O)O | 0.0 | 0.3 | 19 | 15* | -2 | -13 | -2.8 | -5
CN1CCN(C2=C(NS(=O)(=O)c3cccs3)C(=O)c3ccccc3C2=O)CC1 | -0.1 | 8.8 | 23 | 0.1 | 93* | 0 | 0.7 | -2
Cc1sc(NC(=O)c2cc3ccccc3oc2=O)c(C(=O)OC(C)C)c1-c1ccccc1 | -0.1 | 1.4 | 14 | -6.0 | 7 | -9 | 4.1 | -4
O=C(O)/C=C/C(=O)NCc1csc2ccccc12 | -0.8 | 1.1 | 6 | -5.3 | -14 | -13 | 4.0 | -1
CC1(C)CC(=O)C(CC(=O)NC(=O)NCc2ccccc2)=C(O)C1 | 0.1 | 0.6 | -6 | -0.3 | 0 | 4 | -2.4 | -4
O=C(NCc1cccs1)C1CCCN1C(=O)Nc1ccccc1Cl (stereo not given) | 0.3 | -0.4 | -1 | -1.8 | 0 | -14 | -1.2 | -3
O=C(CN1C(=O)NC2(CCCC2)C1=O)NCCN1C(=O)S/C(=C\c2ccccc2F)C1=O | -0.1 | 6.6 | 3 | 2.6 | 2 | 14 | 3.8 | 1
NCCCC(=O)N1c2ccccc2Sc2ccccc21 | 1.5 | 2.0 | -4 | 1.2 | . | -11 | ? | 7
COc1ccccc1NC(=O)c1ccccc1-c1nc(-c2ccccc2OC)no1 | -0.7 | 0.5 | -27 | 1.1 | 4 | 11 | -0.7 | 10
CCN(CC(=O)NCCc1ccc(F)cc1)Cc1nc2ccccc2c(=O)[nH]1 | -0.6 | 0.7 | -2 | -4.3 | 3 | -17 | -3.2 | 1
Cc1cc(OCc2cc(C(=O)N(C)C3CCOCC3)no2)cc(C)c1Cl | -1.4 | 1.1 | -15 | 3.0 | -6 | -13 | 1.7 | 5
COc1ccc(N2CCN(C(=O)CSc3nnnn3-c3ccc4c(c3)OCCO4)CC2)cc1 | -0.1 | 4.7 | 2 | -2.2 | 7 | -3 | 6.4 | 1

Part of the list above, field by field.
O=C(CN1C(=O)NC2(CCCC2)C1=O)NCCN1C(=O)S/C(=C\c2ccccc2F)C1=O
  Bfl-1 A1 inh: -0.1 | UCH37 DUB inh: 6.6 | Calb FLC: 3 | LANA-H2A inh: 2.6 | Beta apoptosis: 2 | T cruzi repl: 14 | RanGTP-Imp inh: 3.8 | Beta2AR agonist: 1
Cc1[nH]c(-c2ccco2)nc1C(=O)O
  Bfl-1 A1 inh: 0.0 | UCH37 DUB inh: 0.3 | Calb FLC: 19 | LANA-H2A inh: 15* | Beta apoptosis: -2 | T cruzi repl: -13 | RanGTP-Imp inh: -2.8 | Beta2AR agonist: -5
